Marburg entry inh – Marburg virus entry inhibition | Potency, µM (series often up to 37.8 µM), inactives show top-dose activity change, negative = inhibition, usual class: inhibitors | Marburg virus pseudotyped entry inhibition, cell reporter; control for the full effect not named in the record; about a third of the inactives were read at about 46 µM | actives 1.8% (n = 300,000) | AID 540276; active = well fitted inhibition curve with a large enough effect; inconclusive = small, poorly fitted or top-dose-only effect, or effect the other way; inactive = flat fitted curve, though single readings scatter; tested in HEK293 cells; about a fifth of its hits are not listed in these tables; also: % is scaled to controls: 0 for no effect and ±100 for the full control effect; luciferase read-out
SARS PLP yeast – blocks SARS-CoV papain-like protease in a yeast assay | S. cerevisiae expressing SARS-CoV PLpro, growth rescue; control for the full effect not named in the record | Potency, µM (titrated, usually from 32.9 µM), inactives show top-dose activity, positive = growth rescue | actives 0.19% (n = 330,000); active means well fitted rising curve with a large enough effect; inconclusive means small, poorly fitted or top-dose-only effect; inactive means no such curve, though single readings can be large or run the other way; also: 0% is about no effect; nearly all actives have a fitted effect of over 55% in size; growth read by luminescence after 48 h
RE007 growth inh – less growth of the S. pombe RE007 Vpr strain; S. pombe RE007 Vpr strain, BacTiter-Glo ATP luminescence, 24 h; control for the full effect not named in the record; Potency, µM (highest dose often 92.2 µM), without a hit: top-dose activity change, negative = less growth; actives 0.21% (n = 360,000); AID 651644; active = well fitted falling curve with a large enough effect; inconclusive = small, poorly fitted or top-dose-only effect; inactive = no such curve, though single readings can be large or run the other way;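 also: % is scaled to controls: 0 for no effect and ±100 for the full control effect; nearly all actives have a fitted effect of over 50% in size; the assay follows cell death caused by Vpr and the record does not say whether a fall means rescue or toxicity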
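Fission yeast strain RE007, carrying one chromosomally integrated HIV-1 vpr copy, was seeded at OD 0.01 in PMG+AL medium with 23 nL pinned compound. After 24 h at 30 °C and 99% humidity, viability was read by BacTiter-Glo luminescence.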
LASV entry inh – blocks Lassa virus binding to or entry into cells. Lassa virus pseudotype entry inhibition, cell reporter; control for the full effect not named in the record. Potency, µM (highest dose often 37.9 µM), inactives show top-dose activity change, negative = inhibition, usual class: inhibitors. actives 1.2% (n = 300,000). AID 540256; active means well fitted inhibition curve with a large enough effect; inconclusive means small, poorly fitted or top-dose-only effect, or effect the other way; inactive means flat fitted curve, though single readings scatter; tested in HEK293 cells; also: % is scaled to controls: 0 for no effect and ±100 for the full control effect; nearly all actives have a fitted effect of over 50% in size; luciferase read-out
Cruzain inh noDet – inhibitors of Trypanosoma cruzi cruzain without detergent; purified cruzain, Z-FR-AMC fluorescence, no detergent; actives 2.3% (n = 200,000); P25779; Potency, µM, for the others: max response, negative = inhibition, usual class: inhibitors; AID 1476;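 also: plate controls were enzyme without inhibitor for no effect and buffer without enzyme for full effect; nearly all actives have a fitted effect of over 40% in size; top concentration of the series not given in the record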
Target sequence (P25779 123-467 limits assumed): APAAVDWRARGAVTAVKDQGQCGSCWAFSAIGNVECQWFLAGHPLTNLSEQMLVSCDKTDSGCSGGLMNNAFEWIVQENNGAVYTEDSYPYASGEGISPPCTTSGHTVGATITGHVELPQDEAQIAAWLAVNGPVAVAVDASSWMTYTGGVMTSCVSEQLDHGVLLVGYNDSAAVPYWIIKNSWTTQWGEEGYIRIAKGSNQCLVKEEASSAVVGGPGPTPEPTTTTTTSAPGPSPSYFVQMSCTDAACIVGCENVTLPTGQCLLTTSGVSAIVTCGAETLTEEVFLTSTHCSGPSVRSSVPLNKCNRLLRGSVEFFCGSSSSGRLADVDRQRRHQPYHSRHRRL
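Detergent-free condition (0.00005% Triton X-100) in acetate buffer pH 5.5 with DTT. 1.5 nM enzyme and compound were pre-mixed 15 min, then 2 uM Z-FR-AMC substrate added; reaction progress from fluorescence change between first and third reads (60 s).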
Cruzain Triton – cruzain (T. cruzi) inhibition with detergent; purified cruzain, Z-FR-AMC fluorescence, 0.01% Triton; actives 0.43% (n = 200,000); Potency, µM, inactives show max response, negative = inhibition, hits mostly inhibitors;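 also: plate controls were neutral wells for no effect and buffer without enzyme for full effect; nearly all actives have a fitted effect of over 40% in size; top concentration of the series not given in the record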
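Purified cruzain (1.5 nM final) was preincubated with compounds for 15 min at room temperature in 100 mM sodium acetate pH 5.5, 5 mM DTT, 0.01% Triton X-100. Reaction started with 2 uM Z-FR-AMC; AMC fluorescence change over 60 s gave activity.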
NS1 inh – inhibitors of influenza NS1 protein function; S. cerevisiae slowed by influenza A NS1, growth recovery by OD600; Potency, µM (doses to about 46.1 µM), for the others: top-dose activity, positive = more growth; actives 0.4% (n = 270,000); AID 2326; active means well fitted rising curve with a large enough effect; inconclusive means small, poorly fitted or top-dose-only effect; inactive means no such curve, though single readings can be large or run the other way; also: nearly all actives have a fitted effect of over 50% in size
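Compounds were scored for reversing the slow growth caused by influenza A NS1 in S. cerevisiae, measured by optical density at 600 nm. Assay medium contained 2% galactose at pH 6.0; NS1-free yeast of the same strain were the positive control.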
StopGo reporter – FMDV 2A StopGo reporter, luciferase signal | human cells with a luciferase reporter of 2A StopGo recoding; control for the full effect not named in the record | Potency, µM (doses to about 57.9 µM), without a hit: at the highest dose signal change, negative = less light | actives 1.2% (n = 410,000); active = well fitted falling curve with a large enough effect; inconclusive = small, poorly fitted or top-dose-only effect; inactive = no such curve, though single readings can be large or run the other way; tested in HEK293T cells; also: % is scaled to controls: 0 for no effect and ±100 for the full control effect; nearly all actives have a fitted effect of over 45% in size; luciferase light after 4 h
* = called active by the depositor; ? = inconclusive; . = no result given; & = joins results of further samples; [ ] = remark or other dose. Unless noted, calls follow the shape of the dose curve; as a rule, active = well fitted curve in the direction sought with a large enough effect; inconclusive = small, poorly fitted or top-dose-only effect, or another doubt; inactive = no such curve, though single readings can be large; an effect the other way counts as inactive or inconclusive. Potency is read from the fitted curve at half-maximal effect.

SMILES	Marburg entry inh	SARS PLP yeast	RE007 growth inh	LASV entry inh	Cruzain inh noDet	Cruzain Triton	NS1 inh	StopGo reporter
CC1(C)Cc2c(c(N3CCCCC3)[nH]c(=S)c2C#N)CS1	5%&5%	1%	15%	2%	13µM*	-1.3%	2%	-18%
O=S(=O)(c1ccccc1)N1CCN(C2CCN(Cc3ccccc3)CC2)CC1	-7%	4%	-2%	-4%	8%	0.1%	-11%	0%
Cc1ccc(C(=O)c2c(NC(=O)c3ccccc3C)sc(C)c2C)cc1	-14%	-20%	13%	-16%	-24%	-1.1%	3%	-11%
CC1=C(C(=O)Nc2ccccn2)C(c2ccc(N(C)C)cc2)n2ncnc2N1 (stereo not drawn)	15%	0%	14%	12%	1%	1.0%	-3%	.
CC(=O)N1CCC(N(CCN2CCOCC2)C(=S)Nc2ccc(C)c(C)c2)CC1	-3%[46.1 µM]	-6%	1%	-4%[46.1 µM]	.	.	.	0%
CC1=C(C)CC(C(=O)c2ccc(C)cc2)C(C(=O)O)C1 (stereo not drawn)	?	5%	18%	-3%	-9%	1.9%	-70%	22%
CN(C)CCNC(=O)CNC(=S)N(CCCN1CCOCC1)Cc1cccs1	?	1%	-1%	11%	.	.	.	-2%
CCOC(=O)/C(C#N)=C(\O)c1ccc(NC(=O)c2ccc([N+](=O)[O-])cc2)cc1	.	2%	-9%	.	.	.	18%	-6%
Cc1cccc(NS(=O)(=O)c2cccc(C(=O)NCCCN3CCCC3=O)c2)c1	-17%	2%	-17%	-2%	.	.	.	54%[activator]
CC(C)C(=O)Nc1nnc(SCC(=O)NC2CC2)s1	-7%	1%	-6%	10%	-4%	-2.7%	1%	14%
CCOC(=O)c1c(C)[nH]c(C)c1C(=O)COC(=O)Cc1ccc(OC)c(OC)c1	2%[46.1 µM]	3%	2%	-4%[46.1 µM]	.	.	.	33%
O=C(CCc1ccccc1)Nc1cccnc1	.	0%	9%	.	.	.	1%	42%[activator]
COc1ccc(-c2cc(C(=O)N(C)Cc3ccccc3)c3ccccc3n2)cc1	?	-10%	10%	10µM*	.	.	-53%	21%
O=C(CC(NCc1cccnc1)C(=O)O)Nc1ccc(F)cc1 (stereo not drawn)	-8%[46.1 µM]	.	.	-1%[46.1 µM]	9%	-0.4%	.	-9%
Cc1ccc(Nc2nnc(SCc3cc(=O)n4cc(C)ccc4n3)s2)cc1	?	6%	3%	15%	-5%	-9.9%	-3%	-27%
Cc1ccc(S(C)(=O)=O)cc1C(=O)Nc1ccc(S(=O)(=O)Nc2nccs2)cc1	15%	23%	1%	-2%	.	.	.	-4%
CCOc1ccc(-n2c(N)c(-c3nc4ccccc4n3C)c3nc4ccccc4nc32)cc1	?	10%	-15%	8%	0%	-1.6%	14%	0%
CC(C)c1ccc(C(C(=O)NC2CCCC2)N(C(=O)CNC(=O)c2ccco2)c2cccnc2)cc1 (stereo not drawn)	9%[46.1 µM]	1%	0%	-8%	?	0.1%	-4%	-21%
COc1ccc(NC(=O)CN(C)CC(=O)N2CCCCCC2)cc1	-4%	8%	9%	14%[46.1 µM]	.	.	.	-10%
COC(=O)c1ccc(-c2nc3cc(N)ccc3o2)cc1	?	-22%	-20%	?	6%	-3.6%	3%	-23%
CCn1cc[n+](C)c1P(c1ccccc1)c1ccccc1	.	4%	-8%	.	?	?	2%	?
CC1CCCCC1NC(=O)C1CCN(C(=O)NC2CCCCC2)CC1 (stereo not drawn)	2%	8%	14%	-14%	4%	2.2%	3%	-24%
C=CCSc1nc2sc3c(c2c(=O)[nH]1)CC(C)(C)OC3	-3%[46.1 µM]	.	-13%	17%[46.1 µM]	.	.	.	-6%
Cc1[nH]c(=O)[nH]c(=O)c1CSCC(=O)OCC(=O)c1ccc(Br)cc1	-9%[46.1 µM]	-5%	15%	13%	.	.	.	-5%
O=C(CNCCN1CCOCC1)Nc1ccccc1Sc1ccccc1	?	5%	-8%	1%	-9%	-1.7%	20%	-8%
OC1CCCN(Cc2ccccc2)C1 (stereo not drawn)	11%	5%	4%	-2%	-4%	2.2%	7%	.
CNNC(=S)Nc1ccc(Cl)cc1	16%[46.1 µM]	-2%	6%	-26%	.	.	-3%	-2%
COc1ccccc1N1CCN(C(=O)c2cc3cc(Cl)ccc3[nH]2)CC1	.	9%	3%	.	.	.	-6%	2%
COC(=O)c1sc(-c2ccc(Cl)cc2)cc1NC(=O)COCC(=O)O	.	2%	0%	.	.	.	4%	3%
Cc1onc(C(=O)N2CCC(C(N)=O)CC2)c1-c1ccccc1Cl	6%	1%	-1%	-4%	-9%	-0.1%	3%	-12%
COc1ccc(OC)c(NC(=O)c2cc(-c3c(C)cc(C)cc3O)n[nH]2)c1	.	2%	-3%	.	.	.	4%	-24%
NC1=NN=C(N2N=C(c3ccco3)CC2(O)C(F)(F)F)n2ncnc2C1 (stereo not drawn)	-11%[46.1 µM]	-1%	-1%	-1%	.	.	.	-4%
CSc1nc2ccccc2c(=O)n1N	25%	1%	-4%	-11%	1%	4.6%	-3%	32%[activator]
Cc1cc(=O)oc2c(C)c(OCC(=O)NCCN3CCOCC3)ccc12	8%[46.1 µM]	1%	-8%	18%[46.1 µM]	.	.	5%	-15%
CN(C)CCSc1nc(-c2ccccc2)nc2c1COC(C)(C)C2	?	5%	-4%	?	-4%	8.3%	-2%	-16%
Cc1oc2c(C)c3oc(=O)c(CCC(=O)N4CCCCC4)c(C)c3cc2c1C	8%[46.1 µM]	.	.	9%[46.1 µM]	2%	6.4%	.	9%
O=C(CNC(=O)c1ccc(S(=O)(=O)N2CCCC2)cc1)N/N=C/c1ccc(Cl)cc1Cl	?	7%	10%	?	9%	-6.7%	5%	0%
COCCCNC(=S)NC1CCCCC1	?	-8%	46%	10%	1%	0.9%	11%	18%
CC(=O)c1cccc(CN2CCN(CCc3ccccc3)C(CCO)C2)c1 (stereo not drawn)	6%	0%	5%	?	.	.	2%	-13%
O=C1CNC(=O)N1CC(=O)N1CCCc2ccccc21	-2%	-10%	1%	13%	-1%	4.5%	3%	-16%
COc1cccc(C(=O)Nc2ccc3[nH]ncc3c2)c1	?	1%	1%	?	.	.	0%	-1%
Cc1cc(N2CCN(C)CC2)ccc1NC(=O)c1ccc(-c2ccc(Cl)cc2)o1	?	2%	-14%	?	.	.	.	-20%
O=C(CN1CCN(S(=O)(=O)N2CCOCC2)CC1)Nc1cc(Cl)ccc1Cl	?	0%	10%	.	.	.	0%	28µM*
COC(=O)c1sccc1S(=O)(=O)N(CC(=O)Nc1cccc(C)c1C)c1ccc(C)c(C)c1	.	.	.	-29%[46.1 µM]	1%	-4.8%	.	-16%
COCCCN1CN(S(=O)(=O)c2ccc(C)cc2C)c2nc3ccccc3nc21	.	-7%	16%	.	.	.	4%	-5%
NC(=S)Nc1cccc2cn[nH]c12	6%[46.1 µM]	1%	16%	-9%	.	.	.	-5%
Cc1cc(C)cc(Oc2ccc(-c3nnc(-c4ccccc4)o3)cc2[N+](=O)[O-])c1	-48%	1%	4%	-7%	?	-4.8%	4%	?
CCOc1ccc(NC(=O)c2ccc(NC(=O)c3ccccc3Br)cc2)cc1	?	0%	-15%	6%	.	.	.	1%
CC1CCN(c2ncnc3c2c(-c2ccccc2)cn3-c2ccc(Br)cc2)CC1	.	.	.	27%[46.1 µM]	-6%	0.6%	.	-8%
CCCCN(C)S(=O)(=O)c1cc(Br)cc2c1N(C(=O)C1CC1)CC2	2%	-17%	-7%	?	11%	-8.3%	-85%	-25%
CC(/C=C/c1ccccc1)=N\NC(=O)c1ccncc1	-28%	0%	-3%	2%	-12%	-1.5%	-15%	.
Fc1cccc(-n2ncc(-c3nnnn3-c3ccccc3)c2C(F)(F)F)c1	-2%	13%	-3%	?	-2%	-4.4%	-8%	-20%
Cc1cc(C)nc(SCC(=O)N/N=C\c2sccc2C)n1	-6%	-3%	-10%	-1%	-3%	1.4%	-10%	3%
Cc1ccnc(NS(=O)(=O)c2ccc(NC(=O)C3C4C=CC(C4)C3C(=O)O)cc2)n1 (stereo not drawn)	.	0%	-2%	.	.	.	3%	13%
c1ccc(-c2csc3ncnc(NCCCN4CCOCC4)c23)cc1	?	?	0%	?	-3%	2.3%	8%	?
CCC(C)C1=CC(=Nc2c(C)n(C)n(-c3ccccc3)c2=O)C=C(C(C)CC)C1=O (stereo not drawn)	?	-1%	-5%	20%[46.1 µM]	.	.	.	-7%
Cc1cc(C)cc(NC(=O)CN2C(=O)c3ccccc3Sc3ncccc32)c1	.	.	.	4%[46.1 µM]	25%	-7.8%	.	-10%
COc1ccc(C(C(=O)NCC2CCCO2)N(C(=O)CNC(=O)c2cccs2)c2ccc(C(C)=O)cc2)cc1OC (stereo not drawn)	24%[46.1 µM]	0%	-2%	-2%[46.1 µM]	.	.	5%	6%
CCN(CCO)c1ccc(NC(=S)Nc2cccc(S(=O)(=O)N(C)C)c2)cc1	?	0%	-9%	27%	.	.	.	-17%
CC(=O)NCc1ccc(C(=O)O)cc1	.	-2%	-9%	.	.	.	9%	-21%

Record cards (already shown). Screens in order: Marburg entry inh, SARS PLP yeast, RE007 growth inh, LASV entry inh, Cruzain inh noDet, Cruzain Triton, NS1 inh, StopGo reporter
COc1cccc(C(=O)Nc2ccc3[nH]ncc3c2)c1 reads ?, 1%, 1%, ?, ., ., 0%, -1%
Cc1ccnc(NS(=O)(=O)c2ccc(NC(=O)C3C4C=CC(C4)C3C(=O)O)cc2)n1 (stereo not drawn) reads ., 0%, -2%, ., ., ., 3%, 13%

Later entries
SMILES	Marburg entry inh	SARS PLP yeast	RE007 growth inh	LASV entry inh	Cruzain inh noDet	Cruzain Triton	NS1 inh	StopGo reporter
CS(=O)(=O)Nc1cccc(-c2cn3ccccc3n2)c1	.	-1%	11%	.	.	.	1%	60%[activator]
O=C1CSC(=S)N1c1ccc(F)c(Cl)c1	.	-6%	?	.	.	.	-80%	?
Cc1cccc(N2C(=O)CC(SC(=Nc3ccccc3)Nc3ccccc3)C2=O)c1 (stereo not drawn)	-15%	-1%	0%	?	4%	1.1%	10%	?
Cc1ccc(C(=O)NCCCn2ccnc2)o1	-10%[46.1 µM]	?	-3%	-4%	4%	1.1%	7%	10%
